Cruzain Triton = cruzain (T. cruzi) inhibition with detergent. purified cruzain, Z-FR-AMC fluorescence, 0.01% Triton. Potency, µM, inactives show max response, negative = inhibition, actives largely listed as inhibitors. hit rate 0.43% among 200,000;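 also: plate controls were neutral wells for no effect and buffer without enzyme for full effect; nearly all actives have a fitted effect of over 40% in size; top concentration of the series not given in the record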
Target sequence (P25779 123-467 limits assumed): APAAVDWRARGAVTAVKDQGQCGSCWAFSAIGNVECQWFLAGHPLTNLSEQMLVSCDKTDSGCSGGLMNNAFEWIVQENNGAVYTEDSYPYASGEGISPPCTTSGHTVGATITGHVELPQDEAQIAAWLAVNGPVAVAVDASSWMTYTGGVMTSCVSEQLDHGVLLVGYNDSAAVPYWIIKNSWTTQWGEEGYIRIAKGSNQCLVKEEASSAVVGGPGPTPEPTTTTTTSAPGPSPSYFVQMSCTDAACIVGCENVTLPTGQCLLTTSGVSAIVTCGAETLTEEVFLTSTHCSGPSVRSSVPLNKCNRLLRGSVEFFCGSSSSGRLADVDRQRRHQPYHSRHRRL
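Z-FR-AMC hydrolysis (2 uM substrate) by cruzain (1.5 nM) monitored kinetically at ex 360/em 450 nm after 15 min room-temperature compound exposure; 0.01% Triton X-100, pH 5.5, 5 mM DTT.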
NS1 function inh = influenza NS1 inhibition. hit rate 0.4% among 270,000. S. cerevisiae slowed by influenza A NS1, growth recovery by OD600. Potency, µM (series often up to 46.1 µM), for inactives: at the highest dose activity, positive = more growth; active means well fitted rising curve with a large enough effect; inconclusive means small, poorly fitted or top-dose-only effect; inactive means no such curve, though single readings can be large or run the other way; also: nearly all actives have a fitted effect of over 50% in size
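Recovery from NS1-induced slow growth read by OD600 in budding yeast switched to galactose assay medium (pH 6.0, -URA) at 1:100 dilution. Compound 23 nl per well; the matching strain lacking NS1 serves as control.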
Marburg entry inh = Marburg virus entry inhibition; Marburg virus pseudotyped entry inhibition, cell reporter; control for the full effect not named in the record; about a third of the inactives were read at about 46 µM; Potency, µM (highest dose often 37.8 µM), for inactives: at the highest dose activity change, negative = inhibition, most hits filed as inhibitors; hit rate 1.8% among 300,000; AID 540276; active = well fitted inhibition curve with a large enough effect; inconclusive = small, poorly fitted or top-dose-only effect, or effect the other way; inactive = flat fitted curve, though single readings scatter; tested in HEK293 cells; about a fifth of its hits are not listed in these tables; also: % is scaled to controls: 0 for no effect and ±100 for the full control effect; luciferase read-out
SARS PLpro yeast = blocks SARS-CoV papain-like protease in a yeast assay; S. cerevisiae expressing SARS-CoV PLpro, growth rescue; control for the full effect not named in the record; Potency, µM (series often up to 32.9 µM), without a hit: at the top dose activity, positive = growth rescue; AID 485353; hit rate 0.19% among 330,000; active means well fitted rising curve with a large enough effect; inconclusive means small, poorly fitted or top-dose-only effect; inactive means no such curve, though single readings can be large or run the other way; also: 0% is about no effect; nearly all actives have a fitted effect of over 55% in size; growth read by luminescence after 48 h
Cruzain noTriton = inhibitors of Trypanosoma cruzi cruzain without detergent; P25779; purified cruzain, Z-FR-AMC fluorescence, no detergent; Potency, µM, without a hit: max response, negative = inhibition, most hits filed as inhibitors; hit rate 2.3% among 200,000; AID 1476;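 also: plate controls were enzyme without inhibitor for no effect and buffer without enzyme for full effect; nearly all actives have a fitted effect of over 40% in size; top concentration of the series not given in the record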
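Purified cruzain at 1.5 nM, pre-incubated 15 min with compound at room temperature in 100 mM sodium acetate pH 5.5, 5 mM DTT, 0.00005% Triton X-100. Reaction started with 2 uM Z-FR-AMC; AMC fluorescence increase over 60 s gives rate.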
RE007 growth inh = less growth of the S. pombe RE007 Vpr strain; S. pombe RE007 Vpr strain, BacTiter-Glo ATP luminescence, 24 h; control for the full effect not named in the record; Potency, µM (titrated, usually from 92.2 µM), for the others: top-dose activity change, negative = less growth; hit rate 0.21% among 360,000; AID 651644; active = well fitted falling curve with a large enough effect; inconclusive = small, poorly fitted or top-dose-only effect; inactive = no such curve, though single readings can be large or run the other way;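 also: % is scaled to controls: 0 for no effect and ±100 for the full control effect; nearly all actives have a fitted effect of over 50% in size; the assay follows cell death caused by Vpr and the record does not say whether a fall means rescue or toxicity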
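Fission yeast RE007 carrying one integrated HIV-1 vpr copy, seeded at OD 0.01 in PMG+AL medium with 23 nL pinned compound. Grown 24 h at 30 degrees; viability read by BacTiter-Glo luminescence after 5 min.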
StopGo reporter = lowers the luciferase signal of an FMDV 2A StopGo reporter. Potency, µM (top dose mostly 57.9 µM), without a hit: top-dose signal change, negative = less light. hit rate 1.2% among 410,000. AID 1159524. human cells with a luciferase reporter of 2A StopGo recoding; control for the full effect not named in the record; active = well fitted falling curve with a large enough effect; inconclusive = small, poorly fitted or top-dose-only effect; inactive = no such curve, though single readings can be large or run the other way; tested in HEK293T cells; also: % is scaled to controls: 0 for no effect and ±100 for the full control effect; nearly all actives have a fitted effect of over 45% in size; luciferase light after 4 h
Lassa entry inh = inhibitors of Lassa virus binding or cell entry; hit rate 1.2% among 300,000; Potency, µM (doses to about 37.9 µM), for the others: at the highest dose activity change, negative = inhibition, usual class: inhibitors; AID 540256; Lassa virus pseudotype entry inhibition, cell reporter; control for the full effect not named in the record; active means well fitted inhibition curve with a large enough effect; inconclusive means small, poorly fitted or top-dose-only effect, or effect the other way; inactive means flat fitted curve, though single readings scatter; tested in HEK293 cells; also: % is scaled to controls: 0 for no effect and ±100 for the full control effect; nearly all actives have a fitted effect of over 50% in size; luciferase read-out
Numbers without * were called inactive; ? = inconclusive; . = not tested or not shown; & = joins results of further samples; [ ] = remark or other dose. Unless noted, calls follow the shape of the dose curve; as a rule, active = well fitted curve in the direction sought with a large enough effect; inconclusive = small, poorly fitted or top-dose-only effect, or another doubt; inactive = no such curve, though single readings can be large; an effect the other way counts as inactive or inconclusive. Potency is read from the fitted curve at half-maximal effect.

Compound | StopGo reporter | Lassa entry inh | Cruzain noTriton | SARS PLpro yeast | NS1 function inh | Marburg entry inh | Cruzain Triton | RE007 growth inh
Cc1ccc(C(=O)N2NC(c3ccc(F)cc3)C3C(=O)N(c4ccc(C)cc4)C(=O)C32)cc1 (stereo not given) | -16% | 21% | -4% | -11% | 5% | 5% | -1.8% | -4%
O=C(CSc1nc(N2CCCCC2)nc(N2CCCCC2)n1)c1ccccc1 | -30% | -1% | ? | -2% | -28% | 2% | -3.5% | -1%
O=C(c1ccccc1)c1ccc2nc(N3CCN(c4ccccc4)CC3)c3nncn3c2c1 | -2% | ? | -20% | . | . | 21%[46.1 µM] | -1.1% | .
O=C(Nc1cc(Cl)cc(Cl)c1)c1cc(S(=O)(=O)N2CCC3(CC2)OCCO3)ccc1F | ? | 17%[46.1 µM] | ? | . | . | . | 1.4% | .
CN(C)S(=O)(=O)c1ccc(C(=O)N2CCOCC2)cc1 | -4% | 4% | -9% | 8% | -7% | 3% | 5.0% | -9%[3.69 µM]
COc1ccccc1NC(=O)c1ccc(CN(c2cc(Cl)ccc2C)S(=O)(=O)c2ccccc2)cc1 | -16% | 5% | 13µM* | 5% | 5% | ? | -0.3% | -18%
Cc1c(C(=O)CN2CCOCC2)[nH]c2ccccc12 | 4% | 29% | -7% | 0% | -13% | 4% | -1.1% | 1%
CCOc1cc(N2CCOCC2)c(OCC)cc1NC(=O)c1c(-c2ccccc2Cl)noc1C | -25% | ? | . | -1% | . | ? | . | -6%
COc1ccc(OCc2nnc(SCC(=O)N3C(C)CCCC3C)o2)cc1 (stereo not given) | 3% | ? | . | -1% | -19% | 0%[46.1 µM] | . | -5%
COc1ccc(NC(=O)C2CCCN2c2ccc(OC)c(OC)c2)cc1OC (stereo not given) | -17% | -18% | 5% | 3% | -2% | -9%[46.1 µM] | -1.7% | -12%
N#C/C(=C(/O)CN1CCOCC1)c1nc2ccccc2s1 | 35%[activator] | 22% | -22% | 1% | 2% | ? | -5.7% | -10%
Fc1ccc(C[n+]2csc3ccccc32)cc1 | -9% | -3% | -10% | -27% | -28% | 4% | -1.1% | 18%
Cc1ccc2cccc(OCC(=O)Nc3ccc(N4CCOCC4)cc3)c2n1 | -11% | -25% | . | 3% | -3% | 0% | . | 1%
COc1cccc(-n2c(=O)c3cc(OC)c(OC)cc3n(CC(=O)Nc3cc(C)[nH]n3)c2=O)c1 | -2% | 2% | ? | 13% | 0% | ? | -2.6% | -2%
CCCS(=O)(=O)c1c(S(=O)(=O)CCC)c2c3ccccc3ccn2c1C(N)=O | 5% | 7% | 13% | 1% | 2% | 3% | 0.5% | 11%
COCCCNC(=O)c1ccc(Cn2c(=O)c3ccccc3n(Cc3ccc(C)cc3)c2=O)cc1 | -17%&-8% | 2%[46.1 µM] | ? | -5% | 14% | 4%[46.1 µM] | 1.1%&9.7% | 15%
O=C(Nc1nncs1)c1ccc(N2C(=O)C3C4C=CC(C4)C3C2=O)cc1 (stereo not given) | 2% | ? | 5% | -5% | 9% | 0% | 1.0% | 22%
O=C(CSc1n[nH]c(-c2ccco2)n1)Nc1ccccc1Cl | -2% | 3% | . | -1% | -4% | -12%[46.1 µM] | . | -8%
CCOC(=O)C1=C(c2ccccc2)OC(N)=C(C#N)C1C(C)C (stereo not given) | 0% | 20% | 1% | 1% | -3% | -9% | -9.1% | 1%
COc1ccc(CCN2C(=O)C3C4C=CC(C3C2=O)C2C(=O)N(CCc3ccc(OC)c(OC)c3)C(=O)C42)cc1OC (stereo not given) | ? | ? | ? | 27% | -6% | -7% | 1.6% | -25%
Cc1cc(C)c(OCCCCCNCCO)c(C)c1 | -3% | 8% | -10% | -2% | -1% | ? | 0.9% | -5%
O=C(COc1ccc(Cl)cc1)N1CCN(c2ccc([N+](=O)[O-])c(N3CCOCC3)c2)CC1 | ? | -19% | 2% | 8% | 8% | ? | -5.4% | -7%
C/C(O)=c1/ccc2cccc3nc(C)nc1c23 | . | -9% | 11% | 0% | -5% | -20% | -7.0% | -12%
CSC1=C(C#N)C(c2cccc(Br)c2)CC(=O)N1 (stereo not given) | -26% | ? | -9% | -2% | -12% | 22% | -3.4% | 1%
c1ccc(CSc2nnc(-c3ccncc3)o2)cc1 | 0% | 16% | 4% | -12% | -5%[9.22 µM] | ? | 3.3% | -2%
O=C(NCCc1cn2ccccc2n1)c1cc(COc2ccc3ncccc3c2)on1 | 11µM* | -23% | . | 0% | 2% | 5.6µM* | . | -14%
COCC1CCN(Cc2nc(-c3ccc4c(c3)OCO4)no2)C1 (stereo not given) | 48%[activator] | 8% | . | 1% | 4% | 14%[46.1 µM] | . | 14%
Cn1ccc(C(=O)NC(=S)N2CCSCC2)n1 | 22% | 17%[46.1 µM] | . | 1% | 3% | ? | . | -23%
Cc1cccc(Cc2nnc(NC(=O)c3cccc(S(=O)(=O)N4CCOCC4)c3)s2)c1 | -16% | -2% | 3% | 4% | -4% | ? | 2.1% | 6%
C#CCOCCOCCOCCNc1nc(N2CCN(C(=O)[C@H]([C@@H](C)CC)n3cc(CCCN=C(N)N)nn3)CC2)nc(N2CCN(C(=O)[C@H](CCCCN)n3cc(CCCC)nn3)CC2)n1 | -7% | 9% | ? | -9% | -41% | 4% | 25µM* | -9%

Remaining list, next part:
Compound | StopGo reporter | Lassa entry inh | Cruzain noTriton | SARS PLpro yeast | NS1 function inh | Marburg entry inh | Cruzain Triton | RE007 growth inh
COc1ccc(-c2nc3sc(CCNS(=O)(=O)c4ccc(F)c(C)c4)c(C)n3n2)cc1 | -16% | ? | 22% | . | . | . | -5.4% | .
COc1ccc(C(CNC(=O)COc2ccc(Br)cc2F)N2CCCC2)cc1 (stereo not given) | -11% | -1% | . | 0% | 7% | ? | . | -21%
O=C(c1ccc(Cl)c([N+](=O)[O-])c1)N(Cc1ccc(F)cc1)C1CCS(=O)(=O)C1 (stereo not given) | -12% | 4% | . | 0% | -6% | -15% | . | 63%
CN(c1ccccc1)S(=O)(=O)c1ccc(C(=O)Nc2nnc(-c3ccco3)o2)cc1 | -18% | -17%[46.1 µM] | . | 12% | . | ? | . | 7%
Nc1nnc(-c2cc3ccccc3oc2=O)s1 | 13% | 1% | -3% | -1% | . | ? | -15% | -12%
COc1ccc(C2C(C(=O)c3cccs3)=C(O)C(=O)N2c2nncs2)cc1 (stereo not given) | 38%[activator] | 4% | -5% | 3% | 16% | 23% | -0.1% | -11%
CC1(C)C(c2cccs2)=[N+]([O-])C2(CCCCC/C2=N\NC(N)=S)N1O (stereo not given) | -12% | -2% | -29% | ? | 16% | 5% | -7.4% | -2%
Cc1ccc2nc(-c3ccccn3)c(Nc3ccccc3C)n2c1 | ? | ? | -2% | -25% | . | 9%&9%[46.1 µM] | -1.3% | ?
CC(C)(C)C(=O)N(CCN(C(=O)C(C)(C)C)c1ccccc1)c1ccccc1 | -7% | 5% | 1% | 0% | 10% | -24% | 1.0% | 0%
O=C(NCc1ccc(Cl)cc1)c1ccc(Br)o1 | 2% | . | -14%&1% | -7% | -16% | . | -1.4%&-1.9% | 5%
CCc1c(C)nc(SCC(=O)N2CC(C)OC(C)C2)[nH]c1=O (stereo not given) | -28% | 16%[46.1 µM] | . | -5% | . | -10% | . | 10%
O=C1C(=C(c2ccccc2)c2ccccc2)Nc2ccccc21 | ? | ? | -3% | -17% | -6% | -29% | 1.6% | -18%
COC1/C=C/C=C(\C)Cc2cc(O)c(Cl)c(c2)N(C)C(=O)CC(OC(=O)C(C)C)C2(C)OC2C(C)C2CC1(O)NC(=O)O2 (stereo not given) | 0% | -24% | . | . | . | 10% | . | -6%
O=C(COC(=O)Cc1ccccc1F)Nc1ccc2[nH]c(=O)[nH]c2c1 | -7% | 2% | . | . | . | -13% | . | 7%
CSc1nsc(SC)c1NC(=O)OCc1ccccc1 | 17% | -8% | -3% | -2% | -33% | 16% | 2.9% | 17%
COC(=O)c1ccc(-c2noc(CN3CCCCC3c3nccn3C)n2)cc1 (stereo not given) | -12% | 0% | . | 0% | 5% | -1%[46.1 µM] | . | 3%
C=CCn1c(NC(=O)c2ccc(C)cc2)c(C#N)sc1=N | 17% | 1% | 4% | -6% | 1% | -1% | -2.1% | 8%
COc1ccc(S(=O)(=O)N2CCCCC2)cc1NC(=O)c1cccc(S(=O)(=O)N2CCOCC2)c1 | -6% | 2% | . | . | . | -21% | . | 3%
Cn1c2c(c(=O)n(C)c1=O)C(CC(=O)Nc1ccc(F)cc1)C(=O)N2 (stereo not given) | 17% | -16% | . | -3% | . | -18%[46.1 µM] | . | -17%
CCOC(=O)c1ccc(NC(=O)c2nc[nH]c2C(=O)NCCCCCNC(=O)OC(C)(C)C)cc1 | -16% | . | . | 2% | 1% | . | . | 1%
CCC1c2ccc(C)n2CCN1C(=O)Nc1ccc(F)cc1 (stereo not given) | 22% | -16% | -12% | -3% | ? | 11% | -3.7% | 5%
CN(C)C1(CNC(=O)c2ccc(Cl)c(S(=O)(=O)NCc3ccco3)c2)CCCCC1 | 11% | 2% | 20% | 15% | 16% | ? | 1.6% | -11%
COc1ccc(NC(=O)c2ccccc2NS(C)(=O)=O)cc1OC | 20% | -2% | 13% | -5% | 4% | ? | 0.3% | -6%
O=C(COc1ccccc1F)NC1CCN(Cc2ccccc2)CC1 | -2% | -18% | 4% | -6% | -1% | -1% | 2.3% | -17%
COC(=O)NCc1ccc(Cl)c(Cl)c1 | -4% | -9% | -3% | -5% | -16% | -1% | 2.3% | -14%
CSc1ccc(S(=O)(=O)N2CCC(C(=O)N3CCOCC3)CC2)cc1 | -24% | 0% | . | 4% | -4% | 3%[46.1 µM] | . | -15%
Cc1ccc(CCNC(=O)c2ccc3c(=O)n(-c4ccc(C)cc4)c(=O)[nH]c3c2)cc1 | -19% | ? | 3% | . | . | ? | 1.4% | .
Cc1cc(C)cc(N(CC(=O)Nc2ccc(Br)cc2)S(=O)(=O)c2c(C)[nH]c(=O)[nH]c2=O)c1 | -1% | . | . | 3% | 9% | . | . | 10%
c1ccc2c(c1)[nH]c1c(NCC3CCCO3)ncnc12 (stereo not given) | ? | 0% | 25µM* | -4% | -5% | ? | -30% | 2%

Assay outcomes (PubChem BioAssay)
